Compound activity as filed in PubChem.
PTK2B oligo ant: blocks oligomerization of human Pyk2 in cells | z-score (the deposit names both 25 µM and 10 µM) | Q293 cells, Pyk2 FERM NanoBiT luminescence; stronger effect = lower value | Q14289 | 99,000 tested, 0.83% active;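 active = Z-score of -3 or lower, scaled per plate to the spread of control and sample wells; inactive = z-score above -3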;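 note: negative z-score means lost luminescence so less FERM oligomerization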
CD11b adhes inh: blocks human CD11b/CD18 adhesion to fibrinogen | P05107+P11215 | K562 CD11b/CD18 adhesion to fibrinogen, ATPlite luminescence; Mn2+ added to activate the integrin | inhibition, % at 10 µM | 93,000 tested, 0.54% active;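 active = primary inhibition of 50% or more at 10 µM, then 40% or more on retest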; note: some results filed as inactive read as strong as hits
Target sequence (P05107 whole entry, looked up, other chains not shown): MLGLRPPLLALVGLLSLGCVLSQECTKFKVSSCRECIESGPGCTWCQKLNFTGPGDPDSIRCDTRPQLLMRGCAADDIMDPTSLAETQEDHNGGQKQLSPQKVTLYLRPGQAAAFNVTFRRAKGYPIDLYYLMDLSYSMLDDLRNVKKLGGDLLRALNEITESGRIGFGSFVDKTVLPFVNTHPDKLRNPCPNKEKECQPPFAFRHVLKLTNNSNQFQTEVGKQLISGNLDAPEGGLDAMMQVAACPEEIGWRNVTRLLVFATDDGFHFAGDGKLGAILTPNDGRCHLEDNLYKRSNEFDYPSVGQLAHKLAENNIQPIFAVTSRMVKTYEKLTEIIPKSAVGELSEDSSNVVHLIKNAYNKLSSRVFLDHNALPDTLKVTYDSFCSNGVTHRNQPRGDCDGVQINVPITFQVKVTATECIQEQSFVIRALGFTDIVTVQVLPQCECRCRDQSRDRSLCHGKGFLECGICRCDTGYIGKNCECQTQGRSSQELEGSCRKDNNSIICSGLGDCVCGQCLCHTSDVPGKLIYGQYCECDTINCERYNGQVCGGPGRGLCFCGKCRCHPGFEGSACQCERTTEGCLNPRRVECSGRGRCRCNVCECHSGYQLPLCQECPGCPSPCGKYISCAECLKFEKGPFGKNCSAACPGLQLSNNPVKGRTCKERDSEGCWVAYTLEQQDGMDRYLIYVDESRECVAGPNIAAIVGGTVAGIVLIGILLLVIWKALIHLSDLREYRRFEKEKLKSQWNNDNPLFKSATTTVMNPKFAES
CD11b adhes enh: enhancers of human CD11b/CD18 binding to fibrinogen; K562 CD11b/CD18 adhesion to fibrinogen, ATPlite luminescence; P05107+P11215; 93,000 tested, 0.07% active; activation, % at 10 µM;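 active = 10 µM primary screen giving 50% or more activity, confirmed by 40% or more on retest at that dose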; note: strong numbers were not always called active; reference of the scale not given here
PLAP act: human PLAP activation | P05187 | purified PLAP enzyme, luminescent substrate read-out; stronger effect = higher value | activation fold at 20 µM | 96,000 tested, 1.2% active; in the data active = activation fold above about 2
MT1-MMP txn act: activates MT1-MMP transcription. HT1080 MT1-MMP promoter luciferase reporter, luminescence, overnight; stronger effect = higher value. activation factor at 10 µM. 86,000 tested, 0.16% active. AID 750;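 active = activation factor of at least 2 for MT1-MMP transcription at 10 µM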
Numbers without * were called inactive; / = no result given. These rows are one share of the data. The share of hits here may be higher or lower than overall.

SMILES | PTK2B oligo ant | CD11b adhes inh | CD11b adhes enh | PLAP act | MT1-MMP txn act
CC(NC(=O)c1ccc(Cn2cc([N+](=O)[O-])cn2)o1)c1ccccc1 (stereo not given) | 0.17 | / | / | 0.9 | /
CC(C)NC(=O)C1CC(=O)N(c2ccc(F)c(Cl)c2)C1 (stereo not given) | -0.99 | -1 | 5 | 1 | 1.2
COc1ccc(N2CCN(C(=O)CC3NC4CCCCC4NC3=O)CC2)cc1 (stereo not given) | 0.31 | -52 | 3 | 1 | 1.1
Clc1ccccc1-c1nc(N/N=C/c2cccnc2)c2ccccc2n1 | -1.6 | / | / | 1 | 1
O=C(O)C1CC=CCC1C(=O)NCc1cn2ccccc2n1 (stereo not given) | / | -50 | 0 | 1.1 | 1.1
N#Cc1ccc(CNc2cnccn2)cc1 | 0.62 | 19 | 8 | 1.1 | /
C=CCOC(=O)C1=C(C)NC(SCC(=O)Nc2nccs2)=C(C#N)C1c1ccc(Cl)cc1 (stereo not given) | -0.37 | -16 | -10 | 1 | 1.2
CCOC(=O)/C=C1\SCC(=O)N1CC(=O)Nc1ccc2c(c1)CCC2 | -0.74 | -13 | 2 | 1.1 | 0.9
CCOc1c2ccc(C(=O)NCCCCc3ccccc3)cc2nn1C | / | / | / | 1.1 | /
O=C(c1cccc(F)c1)N1CCC(O)(c2cccnc2)CC1 | 1.1 | / | / | 1.1 | 1.1
CC(C)CCNC(=O)Cc1ccccc1[N+](=O)[O-] | -0.68 | / | / | 1 | /
COc1nnc(OC)c2ccccc12 | 0.92 | 18 | 4 | 1.1 | /
CCCn1c(/C=C/c2ccccc2)nc2ccccc21 | -1.8 | / | / | 0.7 | /
O=C(CSCc1ccc(F)cc1)N1CCN(c2ccccc2)CC1 | -1.4 | 14 | 0 | 0.9 | 1.6
CC1(C)CN(c2ccccc2)N(C(=O)c2ccc(F)cc2)C1=O | -0.61 | / | / | 0.9 | /
CCn1c(SCC(=O)NC2CCCCC2)nc2c(c1=O)SC(C)C2 (stereo not given) | 0.25 | / | / | 0.9 | 1.3
Cc1ccccc1Nc1nnc(SCC(=O)NCc2ccco2)s1 | 0.2 | 16 | 4 | 0.9 | 1
Cc1cc(C)c(S(C)(=O)=O)c(Oc2ccc(F)cc2)n1 | 0.24 | / | / | 1.2 | /
O=C(c1cc2nc(-c3ccco3)cc(C(F)(F)F)n2n1)N1CCc2ccccc2C1 | -0.13 | 20 | 3 | 1.1 | 1.2
C=C(C)c1cccc(C(C)(C)NC(=O)N2CCN(C/C=C/c3ccccc3)CC2)c1 | 0.38 | 12 | 0 | 1.2 | 0.9
CNC(=S)N1N=C(c2ccc(OC)cc2)CC1c1ccc(N(C)C)cc1 (stereo not given) | -0.2 | -4 | -4 | 1.1 | /
CS(=O)(=O)N1CCN(c2ccc([N+](=O)[O-])c(N3CCOCC3)c2)CC1 | -0.51 | -4 | 16 | 0.9 | /
COc1cccc(C(=O)Nc2cccc(C(=O)N3CCOCC3)c2)c1 | 0.15 | -18 | -3 | 0.7 | 1
Cc1nnc(C)n1/N=C/c1cccs1 | 0.01 | / | / | 1.2 | 1
Cc1ccc2nc(C(C)O)[nH]c2c1 (stereo not given) | 0.94 | / | / | 1.1 | 1.1

By substructure: the entries above with a nitro group on carbon (3)
SMILES | PTK2B oligo ant | CD11b adhes inh | CD11b adhes enh | PLAP act | MT1-MMP txn act
CC(NC(=O)c1ccc(Cn2cc([N+](=O)[O-])cn2)o1)c1ccccc1 (stereo not given) | 0.17 | / | / | 0.9 | /
CC(C)CCNC(=O)Cc1ccccc1[N+](=O)[O-] | -0.68 | / | / | 1 | /
CS(=O)(=O)N1CCN(c2ccc([N+](=O)[O-])c(N3CCOCC3)c2)CC1 | -0.51 | -4 | 16 | 0.9 | /

Entries listed so far that have a cyano group:
SMILES | PTK2B oligo ant | CD11b adhes inh | CD11b adhes enh | PLAP act | MT1-MMP txn act
N#Cc1ccc(CNc2cnccn2)cc1 | 0.62 | 19 | 8 | 1.1 | /
C=CCOC(=O)C1=C(C)NC(SCC(=O)Nc2nccs2)=C(C#N)C1c1ccc(Cl)cc1 (stereo not given) | -0.37 | -16 | -10 | 1 | 1.2

Some of the entries so far, tab-delimited:
Molecule	PTK2B oligo ant	CD11b adhes inh	CD11b adhes enh	PLAP act	MT1-MMP txn act
CNC(=S)N1N=C(c2ccc(OC)cc2)CC1c1ccc(N(C)C)cc1 (stereo not given)	-0.2	-4	-4	1.1	/
CS(=O)(=O)N1CCN(c2ccc([N+](=O)[O-])c(N3CCOCC3)c2)CC1	-0.51	-4	16	0.9	/

Continuation.
SMILES | PTK2B oligo ant | CD11b adhes inh | CD11b adhes enh | PLAP act | MT1-MMP txn act
CCOc1cc(C2NC(=O)NC(c3ccccc3)=C2C(C)=O)ccc1OCC(N)=O (stereo not given) | 1.6 | / | / | 1.2 | 1.2
O=C(Cc1ccccc1)N[C@@H](Cc1ccccc1)c1nc2ccccc2[nH]1 | -0.16 | 24 | 6 | 1.1 | 1.2
COC(=O)c1ccc(NC(C)=O)o1 | 0.85 | 2 | 8 | 1.1 | /
Cc1cc2cc(C)c3nnc(SCC(=O)NCc4ccc5c(c4)OCO5)n3c2cc1C | -0.02 | / | / | 1.1 | /
CCOc1cc(NC(=S)NCC2CCCO2)c(OCC)cc1NC(=O)c1ccccc1C (stereo not given) | -0.58 | / | / | 1.1 | /
O=C(NNc1cccc(Cl)n1)Nc1ccc(Cl)cc1 | -0.27 | / | / | 0.8 | /
Cn1c(C(=O)O)c(CC(=O)NCC2COc3ccccc3O2)c2ccccc21 (stereo not given) | 1.1 | 8 | 1 | 1.2 | 1.2
Cc1ccc(S(=O)(=O)N[C@H](C(=O)N2CCC(C(=O)N3CCC[C@H]3C(=O)O)CC2)C(C)C)cc1 | -0.88 | 0 | -3 | 1.1 | 1.2
COc1ccc(C(=O)Nc2ccc(Cl)cc2C(=O)NCCN2CCOCC2)cc1 | -0.1 | / | / | 1.1 | 1.1
COC(=O)C1CCN(CC(=O)Nc2sc3c(c2C#N)CCC3)CC1 | 0.27 | / | / | 1.1 | 1
CCC1CCCCN1CCn1c(=S)[nH]c2cc(OC)c(OC)cc2c1=O (stereo not given) | 0.29 | 3 | 4 | 1.4 | 0.9
CCCCn1c(SCC(=O)NC(C)(C)C)nnc1-c1ccco1 | -0.41 | -6 | 6 | 0.9 | 1.2
O=C(O)CSc1nc(C(F)(F)F)cc(=O)n1-c1ccccc1 | -0.74 | / | / | 0.8 | /
CCOc1ccccc1-n1nnnc1SCC(=O)Nc1cc(C)on1 | -0.73 | 0 | 11 | 0.8 | 1.1
CCCCCCN1C=CC(=C/C=C(\C#N)C(=O)OCC)C=C1 | -1.7 | / | / | 0.8 | 1.2
O=C(Nc1ccc(Cl)cc1)C1CCN(C(=O)NC2CCCCC2)CC1 | 1.2 | / | / | 1.1 | 1.1
CC(=O)c1cn(CC(=O)Nc2c(C)cccc2C)c2ccccc12 | 1 | / | / | 1 | 1
Cc1ccc(N2C(=O)C3C4C=CC(C4)C3C2=O)cc1C (stereo not given) | 0.18 | 17 | -1 | 1 | 1.1
CCOc1ccc(N2CC(C(=O)OC)CC2=O)cc1 (stereo not given) | -0.54 | -16 | 4 | 1 | 0.9
CCOC(=O)c1ccc(NC(=O)C2(c3ccccc3)CCCC2)cc1 | -1.3 | / | / | 0.9 | /
Cc1nnc2c(Oc3ccccc3)nc3ccccc3n12 | -0.16 | / | / | 1.1 | 1.1
C=CCNC(=O)c1cc(Cl)ccc1Cl | 1.3 | / | / | 1.2 | 1
CCn1c(C)nc2cc(S(=O)(=O)C(F)F)ccc21 | 0.66 | / | / | 1.1 | 1.1
Cc1ccc(S(=O)(=O)/N=C(\c2ccc(F)cc2)n2c(C)nc3ccccc32)cc1 | -0.57 | / | / | 1.2 | /
N#CCCn1nnc2ccccc21 | 0.34 | / | / | 1 | 1.1
CCOC(=O)c1cc(-c2ccc(OC)cc2F)nc2c1c(C)nn2CCC#N | -0.84 | / | / | 1.1 | 0.9
CCN(/C=N/c1sc2c(c1C#N)CCCCC2)CC | 1.2 | / | / | 1.1 | 1.5
O=c1[nH]c(-c2cccnc2)nc2ccccc12 | 0.82 | -26 | -2 | 1 | 1.1
